Vif A3G: HIV-1 Vif–A3G interaction blockers – biochemical, TR-FRET, GST-Vif 1-94, biotin-A3G peptide, dose response retest, primary screen (AID 1117319); inhibition, %; hits with a dose series show IC50 in µM; TR-FRET GST-Vif / biotin-A3G peptide binding; higher % means a stronger effect; test concentration not given here; strong numbers were not always called active; 0.57% of 260,000 active;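 active means above the screen mean plus three standard deviations and confirmed in dose response; inconclusive means results disagree or hit not tested in dose response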;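 further: Vif residues 1-94 fused to GST binding biotinylated APOBEC3G peptide 110-148; 0% = full assay without inhibitor and 100% = GST in place of GST-Vif; retest series ran down from 100 µM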
MLL AF4-AF9 inh: MLL-AF4/AF9 protein interaction inhibition; P42568; AlphaScreen, biotin-AF4 peptide binding to FLAG-AF9; inhibition, % at 10 µM; 0.47% of 350,000 active;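 active means every replicate reaching a set inhibition limit, whatever the replicate mean, cut at about 25% in these data; inconclusive means mean inhibition reaches that limit but some replicates miss it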;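 further: 0% = plate neutral control median and 100% = total signal loss; the record names both 10 and 1 µM as test concentration; the first replicate is given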
LANA-H2B inh: blocks KSHV LANA binding to histone H2A/H2B; cell-free LANA-H2A/H2B peptide, fluorescence polarization; 0.6% of 320,000 active; Q9QR71; AID 2629; inhibition, % (concentration not given with the values); in the data active means inhibition mostly above about 10%, no sharp cut-off; inactive means mostly below about 6.7%;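 further: stock transfer was 7.5 nL into about 10 µL; 0% = median of vehicle wells and 100% = median of positive control wells; one replicate is shown; the record names a cut of 25% in any replicate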
Target sequence (Q9QR71 whole entry, looked up): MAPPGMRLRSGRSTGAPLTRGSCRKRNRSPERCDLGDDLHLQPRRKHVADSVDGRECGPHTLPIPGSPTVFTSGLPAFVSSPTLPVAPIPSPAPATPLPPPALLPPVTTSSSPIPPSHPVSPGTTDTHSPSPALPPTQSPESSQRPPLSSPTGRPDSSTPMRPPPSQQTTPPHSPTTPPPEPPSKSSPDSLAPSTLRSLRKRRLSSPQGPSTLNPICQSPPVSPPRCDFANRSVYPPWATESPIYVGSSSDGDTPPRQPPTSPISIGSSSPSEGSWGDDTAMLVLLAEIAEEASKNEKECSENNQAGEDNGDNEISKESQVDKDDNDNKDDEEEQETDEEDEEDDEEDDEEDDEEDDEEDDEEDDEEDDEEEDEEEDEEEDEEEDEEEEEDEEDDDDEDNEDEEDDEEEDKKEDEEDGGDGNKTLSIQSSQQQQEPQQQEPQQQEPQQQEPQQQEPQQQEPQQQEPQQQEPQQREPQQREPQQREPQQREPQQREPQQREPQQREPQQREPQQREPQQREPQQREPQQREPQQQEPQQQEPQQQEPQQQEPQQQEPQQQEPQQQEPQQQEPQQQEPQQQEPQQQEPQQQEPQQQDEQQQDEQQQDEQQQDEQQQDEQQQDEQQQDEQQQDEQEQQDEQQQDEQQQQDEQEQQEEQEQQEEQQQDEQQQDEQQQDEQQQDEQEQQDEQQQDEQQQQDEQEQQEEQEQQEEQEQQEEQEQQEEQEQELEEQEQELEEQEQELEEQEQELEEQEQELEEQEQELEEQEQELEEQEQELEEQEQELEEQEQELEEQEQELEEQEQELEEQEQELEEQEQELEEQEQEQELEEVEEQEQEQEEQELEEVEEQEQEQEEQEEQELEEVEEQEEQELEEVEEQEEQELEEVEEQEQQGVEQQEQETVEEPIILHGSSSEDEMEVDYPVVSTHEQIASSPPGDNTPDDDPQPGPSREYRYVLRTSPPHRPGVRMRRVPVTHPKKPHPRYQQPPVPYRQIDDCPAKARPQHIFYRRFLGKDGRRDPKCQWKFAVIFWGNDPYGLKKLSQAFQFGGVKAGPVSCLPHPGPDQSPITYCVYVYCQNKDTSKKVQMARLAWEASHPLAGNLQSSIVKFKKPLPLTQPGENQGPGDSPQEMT
Bfl-1 A1 inh: inhibitors of the anti-apoptotic protein A1, read as caspase activation | MEF A1-2A-BIM cells, Caspase-Glo 3/7 luminescence, 3 h; percent of clofoctol response, vehicle zero | caspase activation, % (no concentration beside the values) | 0.066% of 330,000 active;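 active means over half of replicate activation scores above 10%, or exactly half above 10 with the replicate mean above 10; inconclusive means replicate mean below 10 yet half the replicates above 10; inactive means over half of replicates below 10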;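 further: wells of about 30 µL received 50 nL stock; many hits fall short of the cut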
RanGTP-Impb inh: disruptors of Ran-importin-beta complex formation – biochemical, FRET, CFP-Ran, YFP-importin-beta, homogeneous, primary screen; 1.1% of 300,000 active; inhibition, % (no concentration beside the values); cell-free CFP-Ran/YFP-importin-beta FRET ratio;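 active means most replicates above 15%; inconclusive means exactly half above 15%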;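 further: 0% = DMSO wells and 100% = Ran loaded with GDP instead of GTP; wells of about 40 µL received 100 nL stock; the first replicate is given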
Beta apoptosis: blocks beta cell apoptosis | INS-1E cytokine-induced death, ATP luminescence, 48 h; percent of positive-control rescue, neutral wells zero | protection from apoptosis, % (concentration not given with the values) | 0.8% of 300,000 active | AID 435005;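 active means all replicates at 75% or more, or half of them and the mean; inconclusive means half reach 75% but not the mean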;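 further: 0% = cytokine-treated negative control wells and 100% = positive control rescue; higher means more ATP so stronger rescue from cytokine killing; wells of about 40 µL received 100 nL stock; the first replicate is given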
Calb FLC: affects C. albicans growth with fluconazole. C. albicans CaCi-2 (fluconazole-resistant clinical isolate) + fluconazole, Alamar Blue growth, 48 h. growth inhibition, % (test concentration not listed). 0.57% of 300,000 active;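 active means most replicates above 75%; inconclusive means exactly half above 75%; inactive means most below 75%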;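 further: all wells also contain fluconazole at 8 µg/ml as a sub-toxic cotreatment; 0% = median of DMSO wells and 100% = median of geldanamycin control wells; wells of about 8 µL received 7.5 nL stock; the first replicate is given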
T cruzi inh: T. cruzi replication inhibition; inhibition, % (test concentration not listed); T. cruzi beta-gal in NIH3T3, luminescence, 90 h; 1.4% of 300,000 active;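 active means mean inhibition across valid replicates above about 55%, limit read from the data; inconclusive means mean below that limit but half or more replicates reach it; inactive means mean below it, under half of replicates reach it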;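 further: signal also drops with host cell toxicity which is not excluded here; 0% = plate median of DMSO wells and 100% = zero luminescence signal; higher percent means less beta-gal luminescence so fewer parasites; stock transfer was 50 nL into about 50 µL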
An asterisk follows results filed as active; ? = inconclusive; · = no result given; & = joins results of further samples.

SMILES	Vif A3G	MLL AF4-AF9 inh	LANA-H2B inh	Bfl-1 A1 inh	RanGTP-Impb inh	Beta apoptosis	Calb FLC	T cruzi inh
COC(CNC(=O)c1cccc2c1C(=O)N(Cc1cccnc1)C2)OC	3.5%	·	-0.1	-0.1	1.7	-0.1	16.3	-0.9
O=C(O)c1cc(-c2cccnc2)nc2ccccc12	-4.5%	0.0	-0.6	-0.4	-2.6	-6.1	9.4	-1.2
O=C1CC(Cc2ccccc2)C(=O)N1c1ncccn1 (stereo not drawn)	?	-0.3	-6.3	1.0	-1.3	-0.6	-2.9	-29.0
Cc1cc(S(=O)(=O)N2CCCCCC2)c(Cl)cc1Cl	-3.5%	·	0.9	0.0	-0.3	-9.2	-12.9	-3.3
CCSCCOC(=O)C1=C(C)N(C)C(=O)NC1c1ccc2c(c1)OCO2 (stereo not drawn)	·	-1.3	3.5	-0.4	4.8	1.0	-1.7	3.0
CN1CCN(S(=O)(=O)c2ccc(NC(=O)c3cccc(S(=O)(=O)N4CCCC4)c3)cc2)CC1	-3.7%&3.9%	·	0.3	1.6	?	-2.0	-21.3	-13.8
CCC(C)NCCOc1ccc(C)cc1[N+](=O)[O-] (stereo not drawn)	·	-0.4	·	·	2.4	·	5.5	3.4
O=C(CCN1C(=O)C2C3C=CC(C3)C2C1=O)NC1CCCc2ccccc21 (stereo not drawn)	-4.2%	·	2.8	-0.1	-5.8	-4.6	3.0	-5.8
COc1ccc(/C=C2/SC(=O)NC2=O)cc1	-4.0%	-1.6	4.3	-5.3	1.7	10.6	-6.4	24.9
O=S1(=O)CCOC[C@H](c2ccccc2)N1Cc1ccccc1	·	-2.7	-4.0	0.0	1.6	-1.5	3.1	-9.5
CC(=O)Nc1ccc2c(c1)CCC2=O	-1.4%	·	-2.0	-0.4	1.4	-4.6	?	-10.0
CC(Sc1nnc(-c2cccnc2)n1N)C(=O)N1CCOCC1 (stereo not drawn)	1.1%	-9.4	5.3	0.1	3.2	·	-4.5	3.6
CCCN(CCC)CCCNC(=O)c1ccc(CS(=O)(=O)c2c(Cl)cccc2Cl)o1	-4.3%	3.9	4.2	0.3	-6.5	-7.0	-1.6	-10.2
O=C(N/N=C\C=C\c1ccco1)c1cc(-c2ccc3ccccc3c2)n[nH]1	·	2.2	2.0	-0.3	3.4	3.1	20.3	-114.4
Cc1ccc(C(=O)O/N=C/c2c(C)nn(C)c2Cl)cc1	-1.4%	-2.8	-3.7	-0.3	-2.5	-3.4	-13.3	-9.8
CN1CCCCCC1=Nc1ccc([N+](=O)[O-])cc1	·	-3.3	-1.7	0.6	-4.7	-4.0	-3.3	-3.6
O=C(COC(=O)c1ccc(O)cc1)Nc1ccccc1	-6.1%	-3.6	0.1	0.7	0.0	-0.7	2.1	-8.3
O=C(CN1C(=O)CCSc2ccc(S(=O)(=O)N3CCCC3)cc21)Nc1ccccc1	·	-11.0	4.6	-0.5	4.7	·	8.9	-4.3
CC(=O)Nc1ccc(S(=O)(=O)N(Cc2cccnc2)Cc2cc3ccc(C)cc3[nH]c2=O)cc1	0.6%	-1.2	0.8	0.3	6.1	·	1.7	-25.0
Cc1cc(=O)oc2cc(OCC(=O)NCC3CCCO3)ccc12 (stereo not drawn)	1.0%	2.4	-4.4	1.2	0.3	-3.4	-9.8	-6.9
COCCN(C(=O)c1cc2c(s1)CCC2)c1c(N)n(CC(C)C)c(=O)[nH]c1=O	?	-1.3	-4.7	-0.5	·	-10.2	·	·
CCc1nnc(NC(=O)COc2ccc3ccccc3c2)s1	·	1.0	1.8	0.2	-4.1	-7.8	37.3	-12.0
C#CCOCCOCCOCCNc1nc(N2CCN(C(=O)[C@H]([C@@H](C)CC)n3cc([C@@H](N)CC(C)C)nn3)CC2)nc(N2CCN(C(=O)[C@H](CCCCN)n3cc([C@@H](N)CC(C)C)nn3)CC2)n1	10.7%	·	0.2	1.6	4.2	-4.3	3.1	-12.6
CC(Cc1cccs1)NC(=O)Nc1ccc([N+](=O)[O-])cc1 (stereo not drawn)	12.7%	-7.6	2.2	-0.1	?	2.7	-20.8	9.5
Cc1cc(Cl)ccc1NC(=S)NCCc1ccc(Cl)cc1	·	-6.8	2.9	0.4	?	·	-7.1	9.5

New compounds follow:
SMILES	Vif A3G	MLL AF4-AF9 inh	LANA-H2B inh	Bfl-1 A1 inh	RanGTP-Impb inh	Beta apoptosis	Calb FLC	T cruzi inh
CCc1ccccc1NC(=O)CN1CCN(C(=O)CNC(=O)c2ccc(-c3ccccc3)cc2)CC1	·	1.3	1.9	0.4	·	13.4	·	·
CCN(CC)C(=O)CSc1nnc(CCCCCNC(=O)OC(C)(C)C)o1	?	·	6.3	0.6	3.3	1.5	-18.6	11.9
COc1ccc(NC(=O)c2ccc(-c3ccc(-c4noc(C)n4)cc3C)cc2)cc1N1CCN(C)CC1	·	38.3*	3.4	0.0	·	13.5	·	·
CC1CCCN(c2ccc(C(=O)NCc3cccs3)cn2)C1 (stereo not drawn)	26.8%	·	-2.6	0.4	1.1	-1.2	2.1	2.7
CC1(C)CC(=O)C2=C(C1)OC(c1ccncc1)C(C#N)=C2N (stereo not drawn)	18.1%	·	2.8	0.2	-2.5	0.3	-5.6	-13.9
CCN1CCN(C(=S)Nc2ccc3nc(N4CCN(C)CC4)cc(C)c3c2)CC1	5.6%	3.7	-1.1	-0.1	1.8	-11.0	0.5	21.8
CCOC(CNC(=O)c1ccc(N2CCc3ccccc32)c([N+](=O)[O-])c1)OCC	·	·	2.6	-0.4	1.5	-4.4	3.0	-3.8
COc1ccccc1CNC(=O)C1CCC(CNc2c(N3CCC(C)CC3)c(=O)c2=O)CC1 (stereo not drawn)	-5.7%	-21.4	5.0	0.6	-2.4	7.1	-0.5	4.4
O=C(NNC(=O)C12CC3CC(CC(C3)C1)C2)c1ccccn1	-9.3%	-2.0	-5.9	1.1	7.5	91.0*	1.1	4.5
O=[N+]([O-])c1ccccc1S(=O)(=O)N1CCN(Cc2ccc3c(c2)OCO3)CC1	·	6.0	2.4	-0.3	-0.3	-1.1	-23.5	16.2
CCOc1ccc(N2C(=O)S/C(=C\c3cccn3C)C2=O)cc1	-1.9%	·	20.0*	-11.3	-1.4	0.8	6.6	4.9
CCOC(=O)c1c(NC(=O)C2COc3ccccc3O2)sc(C(C)=O)c1C (stereo not drawn)	-3.0%	-3.5	2.5	0.8	3.3	12.3	-1.0	-13.0
COc1cc(CN2CCNC(=O)C2CC(=O)NC2CCC2)cc(OC)c1 (stereo not drawn)	4.4%	-0.9	·	·	0.1	·	-6.3	-2.0
O=C(Nc1ccccc1F)c1ccc(Cn2cc(Br)cn2)cc1	6.4%	-2.1	0.3	-1.5	-4.8	-6.1	14.4	-13.6
O=C(NCc1ccccc1)c1ccc2c(c1)S(=O)(=O)c1cc(Cl)ccc1C2=O	·	1.1	-2.8	0.3	·	-7.5	·	·
Clc1ccc(CNCCCSc2ncccn2)cc1	-2.3%	-4.5	2.5	-0.6	-1.5	1.2	-13.1	47.8
Cc1ccc(CSCCNC(=O)c2ccc(NS(C)(=O)=O)cc2)cc1	3.2%	-2.9	-1.7	0.4	-1.1	·	-4.2	-16.3
Cc1cc(N)n2ncc(-c3cccc(Br)c3)c2n1	1.9%	·	-1.1	-3.3	·	-3.5	·	·
CCOC(=O)c1[nH]c2cc3c(cc2c1NC(=O)CN1CCN(CCO)CC1)OCO3	2.8%	-1.2	-3.3	0.0	-1.0	0.8	-2.0	-13.2
CCOC(=O)c1cnn(-c2nc(-c3ccccc3)cs2)c1C(F)(F)F	-5.0%	·	3.1	0.5	0.2	7.6	1.8	-21.8
CCc1noc(C)c1C(=O)Nc1cccc2ncccc12	·	-0.8	1.3	-0.3	-1.5	-0.9	-2.8	-26.5
CN1CC(C(=O)O)Cc2c1ccc1ccccc21 (stereo not drawn)	18.4%	8.5	3.2	0.0	5.7	-2.6	8.8	-9.5
O=C1c2ccccc2C(=O)C1c1ccccn1	-3.4%	·	1.9	-5.4	2.2	1.4	6.7	14.1
CCn1c(=S)sc2c(=O)n(-c3ccccc3)c(SCC(=O)NCc3ccco3)nc21	17.3%	·	-2.1	0.3	-1.3	5.8	-2.7	-5.1
COc1ccccc1CNC(=O)C(=O)NCCC1CCCCN1S(=O)(=O)c1ccc(C)cc1 (stereo not drawn)	-5.4%	-1.0	·	0.3	-0.1	-0.1	-12.7	34.4

Some of these compounds in order of the MLL AF4-AF9 inh value, lowest first.
structure,MLL AF4-AF9 inh
COc1ccccc1CNC(=O)C1CCC(CNc2c(N3CCC(C)CC3)c(=O)c2=O)CC1 (stereo not drawn),-21.4
Cc1ccc(CSCCNC(=O)c2ccc(NS(C)(=O)=O)cc2)cc1,-2.9
O=C(NNC(=O)C12CC3CC(CC(C3)C1)C2)c1ccccn1,-2.0
CCN1CCN(C(=S)Nc2ccc3nc(N4CCN(C)CC4)cc(C)c3c2)CC1,3.7

Following part.
SMILES	Vif A3G	MLL AF4-AF9 inh	LANA-H2B inh	Bfl-1 A1 inh	RanGTP-Impb inh	Beta apoptosis	Calb FLC	T cruzi inh
O=C(c1cccc2ccccc12)N1CCCCC1	·	1.9	11.2*	1.0	2.2	-2.3	7.6	-2.0
c1ccc(C(c2ccccc2)c2noc(CN3CCN(C4CCCC4)CC3)n2)cc1	6.7%	3.1	-1.1	0.5	-3.6	-3.9	3.8	43.4
O=C(Cn1c(=O)sc2ccccc21)NCc1ccccn1	-0.3%	0.0	7.0	-0.8	-0.5	-0.4	-2.3	-8.0
Cc1cccc(C(=O)c2cn[nH]c2-c2ccccc2O)c1	-3.2%	0.2	-0.5	1.4	2.1	-11.2	28.7	-0.5
Cn1cccc1/C=N\NC(=O)Cc1ccc(Br)c2ccccc12	9.4%	·	5.1	-0.4	-0.2	15.8	-4.1	7.4
CCC1CCCCN1C(=O)COC(=O)c1cccs1 (stereo not drawn)	·	0.8	6.5	-0.4	·	-4.0	·	·
O=C(NCc1ccco1)c1sc(=S)n2c1[nH]c(=O)c1ccccc12	0.6%&0.0%	·	-1.4	-0.4	2.7	-0.9	93.4*	-18.7
Cc1ccc(NC(=O)N2CCCC2C(=O)NCc2cccs2)cc1 (stereo not drawn)	15.1%	·	-1.8	0.8	4.2	-12.7	-10.4	-11.9

Single records (already shown). Screens in order: Vif A3G | MLL AF4-AF9 inh | LANA-H2B inh | Bfl-1 A1 inh | RanGTP-Impb inh | Beta apoptosis | Calb FLC | T cruzi inh
Listed for Cn1cccc1/C=N\NC(=O)Cc1ccc(Br)c2ccccc12 = 9.4% | · | 5.1 | -0.4 | -0.2 | 15.8 | -4.1 | 7.4
Listed for O=C(Cn1c(=O)sc2ccccc21)NCc1ccccn1 = -0.3% | 0.0 | 7.0 | -0.8 | -0.5 | -0.4 | -2.3 | -8.0
Listed for Cc1ccc(NC(=O)N2CCCC2C(=O)NCc2cccs2)cc1 (stereo not drawn) = 15.1% | · | -1.8 | 0.8 | 4.2 | -12.7 | -10.4 | -11.9
Listed for O=C(c1cccc2ccccc12)N1CCCCC1 = · | 1.9 | 11.2* | 1.0 | 2.2 | -2.3 | 7.6 | -2.0

Source: PubChem BioAssay (several laboratories)

Rows are unselected. About 4.3% of those tested had a hit in this group.
